# Compound activity as filed in PubChem.
# D2 agonist – human D2 receptor agonism in beta-arrestin assay. P14416. DiscoveRx PathHunter D2 beta-arrestin, luminescence, 90 min; 100% = 57 uM dopamine signal. activation, % (no concentration beside the values). actives 0.084% (n = 360,000). AID 624465; in the data active = activation above about 40%; inconclusive = about 15% to 40%; inactive = below about 15%; further: compound concentration not given in the record; the text of the record calls up to 30% inactive
#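 DiscoveRx PathHunter D2 beta-arrestin cells (2,100/well) attached overnight, then compound-stimulated 90 min at 37 C in HBSS/10 mM HEPES/0.1% Tween-20 buffer; beta-galactosidase complementation read by luminescence after 1 h at ambient temperature. Dopamine 57 uM final (EC100) as control.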
# D2 potentiator – human D2 receptor positive allosteric modulation; actives 0.23% (n = 360,000); P14416; potentiation, % (no concentration beside the values); DiscoveRx D2 beta-arrestin cells, luminescence, 90 min; 100% = 57 uM dopamine signal; active = potentiation of 50% or more; inconclusive = 30% to 50%; inactive = 30% or less;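 further: compound concentration not given in the record; tested on top of an EC20 dose of dopamine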
#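 PathHunter D2 cells, attached overnight at 37 deg C, received compound in DMSO plus dopamine at EC20 (50 nM final) for 90 min at 37 deg C. Beta-arrestin recruitment was read as luminescence after 1 h with detection reagent at ambient temperature.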
# Six1-Eya2 blk – Six1/Eya2 interaction inhibition; Q15475+O00167; AlphaScreen GST-Six1/His-Eya2 binding, biochemical; active compounds read low; control for the full effect not named in the record; activity change, % (concentration not given with the values); actives 0.56% (n = 360,000); in the data active = activity change below about -65%; inconclusive = about -30% to -65%; inactive = above about -30%; further: on the % scale 0 is the no-effect control and ±100 the full control effect
# Target sequence (O00167 whole entry, looked up): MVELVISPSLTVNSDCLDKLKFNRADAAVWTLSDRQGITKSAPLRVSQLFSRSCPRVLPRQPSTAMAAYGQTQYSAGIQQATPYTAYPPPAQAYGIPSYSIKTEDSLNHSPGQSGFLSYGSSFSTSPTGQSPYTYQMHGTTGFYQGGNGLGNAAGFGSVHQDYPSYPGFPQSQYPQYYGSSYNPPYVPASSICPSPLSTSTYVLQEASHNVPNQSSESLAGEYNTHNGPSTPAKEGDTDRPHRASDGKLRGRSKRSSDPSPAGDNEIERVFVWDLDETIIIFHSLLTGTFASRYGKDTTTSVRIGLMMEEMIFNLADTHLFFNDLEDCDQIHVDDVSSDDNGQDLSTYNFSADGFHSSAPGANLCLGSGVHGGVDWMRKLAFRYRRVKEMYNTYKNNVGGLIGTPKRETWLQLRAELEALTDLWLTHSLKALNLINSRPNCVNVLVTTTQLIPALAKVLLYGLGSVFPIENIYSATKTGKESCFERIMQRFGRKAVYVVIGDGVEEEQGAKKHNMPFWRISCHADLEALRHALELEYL
# Target sequence (Q15475 whole entry, looked up): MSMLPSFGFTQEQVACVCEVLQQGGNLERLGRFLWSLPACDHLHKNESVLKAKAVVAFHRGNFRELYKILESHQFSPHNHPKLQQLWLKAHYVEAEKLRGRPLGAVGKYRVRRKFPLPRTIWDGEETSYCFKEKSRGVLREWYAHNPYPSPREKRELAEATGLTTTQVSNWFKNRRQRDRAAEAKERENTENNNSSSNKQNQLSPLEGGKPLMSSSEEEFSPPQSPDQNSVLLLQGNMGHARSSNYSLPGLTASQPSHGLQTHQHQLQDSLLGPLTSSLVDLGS
#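 AlphaScreen luminescence read after one hour at 37 °C in darkness. Pin-transferred compounds met GST-Six1 and His-Eya2 protein (5X stock 250 nM/500 nM) plus glutathione donor and Ni-chelate acceptor beads (5X, 50 ug/mL).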
# TRPML1 ag – activates the human TRPML1 channel; TRPML1-expressing cells, Ca2+ dye fluorescence, FDSS; host cell line not named in the record; reference of the full effect not given here; activation, % (concentration not given with the values); Q9GZU1; actives 0.12% (n = 410,000); in the data active = activation above about 50%; inconclusive = about 30% to 50%; inactive = below about 30%; further: 0% is about no effect; the text of the record puts the active cut at 80%
#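 Tetracycline-induced TRPML1-DL cells are seeded and incubated overnight before loading with a no-wash Ca2+ dye and quencher. Agonist activity is taken from the 110 s fluorescence read following compound pin-transfer on an FDSS, before EC80 54-4 challenge.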
# PINK1 modulator – modulators of PINK1 expression. AID 624263. actives 0.2% (n = 410,000). Potency, µM (doses to about 76.6 µM), inactives show top-dose activation (PINK1 increase), actives largely listed as activators. PINK1 immunofluorescence, high-content cytometry, 24 h; active = well fitted activation curve with a large enough effect; inconclusive = small, poorly fitted or top-dose-only effect; inactive = flat fitted curve, though single readings scatter; cell line not stated here;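 further: potency means the concentration at half of the fitted maximal effect; % of control where 0% means no effect; nearly all actives have a fitted effect of over 65% in size; a mitochondrial uncoupler was the plate control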
#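 Decision-based qHTS: stable cells, 24 h exposure to five compound concentrations, CCCP as control. Fixed cells stained for PINK1 plus nuclear, mitochondrial and cell markers, cytometer read.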
# CtBP-E1A blk – inhibitors of CtBP/E1A interaction. AID 651724. activity change, % (concentration not given with the values). actives 0.49% (n = 340,000). AlphaScreen GST-E1A/His-CtBP binding, 1536-well; active compounds read low; control for the full effect not named in the record; in the data active means activity change below about -65%; inconclusive means about -30% to -65%; inactive means above about -30%; further: on the % scale 0 is the no-effect control and ±100 the full control effect
#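 GST-E1A and His-tagged CtBP (125 nM each as 5X stock) were preincubated with pin-transferred compound for 2 h at 37 °C in the dark, then glutathione donor and nickel acceptor beads were added for 1 h before AlphaScreen reading.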
# Starred values were filed as active, the others as inactive; x = not tested or not shown; & = joins results of further samples; [ ] = remark or other dose.
molecule	D2 agonist	CtBP-E1A blk	PINK1 modulator	Six1-Eya2 blk	TRPML1 ag	D2 potentiator
FC(F)(F)COc1ccc(-n2ccnc2)nn1	0.0	-25	1.7%	-6	-0.5	-4
Nc1c(C(=O)NCC2CCCO2)sc(=S)n1-c1ccccc1 (stereo not given)	-0.3	-2	1.5%	-1	-0.2	17
O=C(O)Cc1ccc2ccc3ccccc3c2c1	-1.8	1	1.4%	0	0.9	-3
CCn1ncc([N+](=O)[O-])c1C(=O)NC1CCCCC1	-2.9	x	2.9%	7	0.2	-10
CC1CCN(S(=O)(=O)N2CCC(C(=O)N3CCC(N(C)CC4CCCO4)CC3)CC2)CC1 (stereo not given)	-2.1	1	0.0%	2	-0.2	-3
COC(=O)Nc1ccc2c(c1)N(C(=O)CCN1CCN3CCCC3C1)c1ccccc1S2 (stereo not given)	-0.3	-14	-6.6%[38.3 µM]	-14	-0.4	-12
Cc1cccc(C)c1NC(=O)C1(N(C(=O)c2ccccn2)c2ccc(O)cc2)CCCCC1	2.5	-1	-0.6%	-1	0.4	2
Cc1cc(/C=C2\SC(=O)N(C)C2=O)c(C)n1-c1ccc(S(N)(=O)=O)cc1	0.9	x	0.9%	-7	-0.6	2
Cc1oc(-c2ccc(Cl)cc2)[n+]([O-])c1C	-2.9	1	-1.2%	7	-0.9	1
C[C@H]1CN([C@@H](C)CO)C(=O)c2cc(C3=CCCC3)cnc2O[C@@H]1CN(C)C(=O)c1ccncc1	0.8	4	-1.2%	16	0.5	1
COCC1CCCN(C(=O)c2cc(COc3ccc(C(C)=O)cc3)on2)C1 (stereo not given)	-1.0	-4	0.9%	2	0.3	-19
COc1ccc2ccccc2c1/C=N/n1cnnc1	-3.0	x	1.4%	9	0.5	-1
Nn1c(SCC(=O)NCCC2=CCCCC2)nnc1C(F)(F)F	-2.2	8	0.0%[38.3 µM]	1	1.1	-6
COc1ccc(C(=O)Nc2ccc(-c3n[nH]c(=S)o3)cc2)cc1OC	-3.4	x	1.1%	-28	1.1	-7
O=C1CC(C(=O)Nc2ccc(Cl)cc2)S/C(=N\N=C\c2ccco2)N1 (stereo not given)	-2.1	-11	-0.6%	-8	-0.4	-6
CC1(C)C=Cc2c(ccc3c2OC[C@@H](c2ccc(O)cc2O)C3)O1	-2.1	-5	0.3%	-14	x	-29
CCOc1ccc(NC(=S)N2CCN(S(=O)(=O)c3ccc(OC)cc3)CC2)cc1	-2.1	7	-1.9%	-9	0.5	16
CCc1ccc(NC(=O)CSCCN2C(=O)c3ccccc3C2=O)cc1	-1.3	5	-1.6%	7	4.2	-4
Cc1ccc(/C=C2/C(=O)N=C(N)N2C)s1	-1.5	8	-0.4%	10	-0.6	-2
CCc1nnc(N/N=C/c2ccc(O)c(OC)c2)n1N	0.9	-15	0.2%	-3	-0.2	0
CCOC(=O)C1CCN(c2c(NCc3ccc(C(=O)Nc4ccc(C)cc4)cc3)c(=O)c2=O)CC1	-3.4	x	6.7%	1	-0.2	-14
O=C(COC(=O)c1ccc(=O)n(Cc2ccccc2)n1)Nc1ccc2c(c1)OCCO2	-2.3	8	-1.8%	-2	2.2	-17
CCc1[nH]nc2c1C(c1ccc(Br)s1)C(C#N)=C(N)O2 (stereo not given)	-2.2	2	-0.2%	0	2.5	-22
COc1ccc(NC(=O)c2cn3c(nc4ccccc43)c(C#N)c2C)cc1	-1.5	-2	5.1%	0	0.4	-13
Clc1ccccc1/C=C/c1nc(-c2ccccn2)no1	5.5	-25	7.0%	3	2.4	-2
COc1cc(NC(=O)COC(=O)C=C(C)C)c(C)cc1[N+](=O)[O-]	-1.3	0	-0.9%	2	-0.5	-2
Cc1cccc2cc(C#N)c(NCc3ccccc3)nc12	-2.2	x	5.4%	33	3.6	3
C=CCn1c(=N)n(CC(=O)c2ccc(OC)cc2)c2ccccc21	-1.7	9	0.0%	-2	1.5	-13
CC(=O)N1c2ccccc2NC2=C(C(=O)CC(C)(C)C2)C1c1cccn1C (stereo not given)	-2.4	6	-0.8%	-7	-0.6	-9
Cc1csc(NC(=O)c2c(-c3ccccc3)noc2C)n1	-2.6	3	4.1%	-4	-0.4	-8
Cc1ccc(N2C(=O)CC(Cc3cccc(C)c3)C2=O)cc1 (stereo not given)	-0.3	32	-1.5%	0	3.3	1
O=C(NCCNC(=O)c1ccccc1O)c1ccccc1O	-0.8	9	4.1%	-5	0.2	1

# Complete entries as entered above:
# CCc1ccc(NC(=O)CSCCN2C(=O)c3ccccc3C2=O)cc1 in the list: D2 agonist = -1.3; CtBP-E1A blk = 5; PINK1 modulator = -1.6%; Six1-Eya2 blk = 7; TRPML1 ag = 4.2; D2 potentiator = -4
# O=C1CC(C(=O)Nc2ccc(Cl)cc2)S/C(=N\N=C\c2ccco2)N1 (stereo not given) in the list: D2 agonist = -2.1; CtBP-E1A blk = -11; PINK1 modulator = -0.6%; Six1-Eya2 blk = -8; TRPML1 ag = -0.4; D2 potentiator = -6

# Remaining list, next part
molecule	D2 agonist	CtBP-E1A blk	PINK1 modulator	Six1-Eya2 blk	TRPML1 ag	D2 potentiator
Cc1cc(C)n2nc(CNS(=O)(=O)c3cccc([N+](=O)[O-])c3)nc2n1	1.3	-2	-0.4%	3	-1.2	-10
O=C(NCc1cccc(OC(F)(F)F)c1)C1CCC(=O)N(Cc2cccc(F)c2)C1 (stereo not given)	-2.8	3	0.2%	1	-0.5	-5
CCN(CC)CCn1c2ccccc2c2nc3ccc([N+](=O)[O-])cc3cc21	-2.0	0	-0.2%	-3	0.5	-12
CCc1ccc(NC(=O)Cn2nnc(C(=O)NCCc3ccc(OC)c(OC)c3)c2N)cc1	7.0	1	0.1%	7	-0.4	5
CCCc1cc(=O)n2[nH]c(NCc3ccccc3Cl)nc2n1	0.7	-1	4.2%	0	0.7	4
O=C(Nc1ccc(-c2nc3ccccc3o2)cc1)c1ccc2c(c1)OCO2	4.5	2	24%[38.3 µM]	1	0.4	1
O=C(NC1CCS(=O)(=O)C1)c1ccc(N2CCCCC2)c([N+](=O)[O-])c1 (stereo not given)	-3.9	-3	0.3%	-4	0.4	-13
O=C(CSc1ncn[nH]1)NCCc1ccccc1	-3.0	0	-1.3%	3	0.3	5
O=C(COC(=O)C1CCN(S(=O)(=O)c2cccs2)CC1)Nc1ccc(F)cc1F	-3.5	10	1.7%	-4	0.7	-1
CCn1c(CNc2ccc(C(=O)O)cc2)nc2ccccc21	-1.1	6	x	3	1.1	-19
CC(=O)NC12CC3CC(C1)CC(C(=O)Nc1nc4ccc(F)cc4s1)(C3)C2	4.6	2	-0.6%	0	0.9	-14
COc1ccccc1C(=O)NC(=O)COC(=O)Cc1n[nH]c(=O)c2ccccc12	-2.7	-12	0.5%	-1	4.3	3
N#C/C(=C/c1cn[nH]c1-c1cccc(Br)c1)C(=O)O	-0.2	-5	0.1%	17	0.7	-4
CCN(CC)S(=O)(=O)c1cccc(C(=O)NC(Cc2c[nH]c3ccccc23)c2nnc3n2CCCCC3)c1 (stereo not given)	0.4	-7	1.1%[38.3 µM]	-5	-0.4	-8
CCOc1ccc(CCN2C(=O)C(=O)N([C@@H](CC(C)C)CN3CCC[C@@H]3CN3C(=O)C(=O)NC[C@@H]3Cc3ccccc3)C[C@@H]2CC(C)C)cc1	-1.6	-12	3.6%	-23	-0.4	-2
O=c1cc(O)c(-c2ccc(Cl)cc2)c(Cl)[nH]1	0.1	3	-1.3%	-1	1.6	-6
CN(C)CCN(C)C1CN(CCc2ccccc2)S(=O)(=O)C1 (stereo not given)	-5.0	2	0.4%	0	-0.4	-1
COC(=O)C1CCN(CC(=O)Nc2ccc(OC)c(Cl)c2)CC1	-3.6	x	3.8%	2	0.7	-1
CN(CC(=O)Nc1ccc(F)cc1)C(=O)COc1ncnc2ccccc12	-1.7	8	-0.8%	1	1.5	2
N#Cc1c(N)oc(-c2ccc3c(c2)OCO3)c1-c1ccc2c(c1)OCO2	1.1	5	3.8%	-6	-0.2	5
COc1ncccc1-c1ccc2nncn2c1	-3.1	-3	4.0%	2	-0.4	-7
Oc1ccccc1C1=NCCNC(C(F)(F)F)=C1	-4.1	-4	-1.6%	-4	0.2	-6
O=C(Nc1ccc(N2CCN(C(=O)c3ccc(Cl)cc3)CC2)cc1)c1ccc2c(c1)OCCO2	8.7	-14	1.5%[38.3 µM]	-13	-0.5	14
Cc1cc(CNC(=O)Nc2ccc3c(c2)OCO3)nn1C	1.6	1	-4.2%[38.3 µM]	-3	-0.5	0

# Four entries picked at random from those above, as already listed:
molecule	D2 agonist	CtBP-E1A blk	PINK1 modulator	Six1-Eya2 blk	TRPML1 ag	D2 potentiator
O=C(Nc1ccc(N2CCN(C(=O)c3ccc(Cl)cc3)CC2)cc1)c1ccc2c(c1)OCCO2	8.7	-14	1.5%[38.3 µM]	-13	-0.5	14
N#Cc1c(N)oc(-c2ccc3c(c2)OCO3)c1-c1ccc2c(c1)OCO2	1.1	5	3.8%	-6	-0.2	5
COc1ncccc1-c1ccc2nncn2c1	-3.1	-3	4.0%	2	-0.4	-7
Oc1ccccc1C1=NCCNC(C(F)(F)F)=C1	-4.1	-4	-1.6%	-4	0.2	-6

# The results go on.
molecule	D2 agonist	CtBP-E1A blk	PINK1 modulator	Six1-Eya2 blk	TRPML1 ag	D2 potentiator
Cc1ccsc1C1NC(=O)c2ccccc2N1 (stereo not given)	1.3	-11	3.5%	-3	-0.3	-15
C[C@H]1CCC(=O)N([C@H](CSc2ccccc2)Cc2ccccc2)CC1	-10	8	5.3%	9	2.2&-0.4	-5
COc1ccc(N2CCN(C3=CC(=O)N(c4cccc(Cl)c4)C3=O)CC2)cc1	-4.6	-2	-0.8%	1	-0.1	0
Cc1ccc(C(=O)CC2(O)C(=O)N(C)c3ccccc32)s1 (stereo not given)	0.4	9	0.5%	3	-0.1	-1
COc1cc(CN2CCCN(C)CC2)c([N+](=O)[O-])cc1OC	4.1	0	2.5%	12	0.2	-4
Cc1cc(OC(C)C(=O)N2CCN(c3ccccc3)CC2)c2c(C)c(C)c(=O)oc2c1 (stereo not given)	-0.8	x	10%	8	0.4	-3
COc1ccc(CN2CCOCCOCCOCC2)cc1	2.3	4	-2.0%	1	-0.6	1
CC(=O)Nc1ccc(/C=N/N2C(=O)NC(C)(c3ccc(OC(F)F)cc3)C2=O)cc1 (stereo not given)	-2.2	-1	3.0%	1	50*	-14
CCCCC(=O)NNC(=O)c1c(O)c2ccccc2[nH]c1=O	-0.4	x	0.3%	3	-0.6	-7
COc1ccc(-n2nnc3c(SCC(=O)Nc4ccccc4F)ncnc32)cc1	0.0	-2	6.3%	9	-0.7	-7
O=S(=O)(NCCc1ccccc1)c1ccc(Br)s1	2.6	-3	2.2%	21	2.5	-2
Cc1sc(NC(=O)C2=COCCO2)nc1-c1ccc(F)cc1	-2.0	-17	-0.1%	9	1.0	-1
Cc1onc(-c2ccccc2)c1C(=O)N1CCN(c2ccccc2)CC1	-3.0	17	8.4%	2	-0.1	-22
